From PubChem BioAssay
Mtb H37Rv – M. tuberculosis H37Rv growth inhibitors, H37Rv strain (AID 1626) | M. tuberculosis H37Rv growth inhibition; higher % means a stronger effect | one-dose inhibition, % at 10 µM; IC50 in µM for titrated hits | hit rate 0.95% among 220,000;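 active means confirmed in a dose series; inconclusive means inhibition above 80% but not taken into the dose series; inactive means below 80% or under 30% at every dose of the series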;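 further: bacteria incubated seven days before Alamar blue readout; 0% = bacteria only wells and 100% = bacteria with antibiotic wells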
RecA intein inh – Mtb RecA intein splicing inhibitors, primary screen, biochemical, fluorescence, HTS; cell-free RecA intein splicing; inhibition, %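 (about 9 µM by stock and volumes)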; hit rate 0.75% among 290,000; AID 2221, 2009; in the data active means inhibition above about 30%; inconclusive means no clear call, values can overlap the other calls;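 further: 0% = vehicle wells and 100% = reference inhibitor control wells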
Target sequence (P9WHJ3 whole entry, looked up): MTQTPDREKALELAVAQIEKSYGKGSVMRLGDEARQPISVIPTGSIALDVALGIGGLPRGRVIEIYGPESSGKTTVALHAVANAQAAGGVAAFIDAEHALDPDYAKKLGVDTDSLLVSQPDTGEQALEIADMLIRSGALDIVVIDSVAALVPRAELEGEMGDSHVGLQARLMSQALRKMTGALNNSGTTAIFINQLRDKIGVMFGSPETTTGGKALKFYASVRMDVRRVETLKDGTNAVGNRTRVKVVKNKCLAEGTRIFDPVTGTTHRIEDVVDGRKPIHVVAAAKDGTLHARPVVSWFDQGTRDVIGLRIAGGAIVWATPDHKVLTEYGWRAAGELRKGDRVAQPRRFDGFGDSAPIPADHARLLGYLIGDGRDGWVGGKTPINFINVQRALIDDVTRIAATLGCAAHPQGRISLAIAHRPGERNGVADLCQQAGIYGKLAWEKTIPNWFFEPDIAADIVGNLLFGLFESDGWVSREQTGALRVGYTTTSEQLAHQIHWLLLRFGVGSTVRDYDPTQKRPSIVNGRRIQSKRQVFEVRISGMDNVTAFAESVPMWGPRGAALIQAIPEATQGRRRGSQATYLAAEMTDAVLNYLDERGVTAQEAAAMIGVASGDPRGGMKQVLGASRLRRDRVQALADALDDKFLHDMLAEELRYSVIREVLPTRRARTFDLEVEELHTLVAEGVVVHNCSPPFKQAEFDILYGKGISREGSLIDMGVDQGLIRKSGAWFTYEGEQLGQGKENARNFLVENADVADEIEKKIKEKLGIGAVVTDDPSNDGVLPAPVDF
Mtb bLac sens – beta-lactam sensitization of Mtb H37Rv, H37Rv; M. tuberculosis H37Rv growth with meropenem, percent inhibition; hits of this screen are not shown here; hit rate 0.27% among 330,000; inhibition, % at 25 µM;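 active means about 74% or more and at least 40 points above the plate without the antibiotic, then above 30% in a dose series; inconclusive means first-round hits that could not be retested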;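 further: growth measured after seven days incubation then overnight dye step; 0% = bacteria only wells and 100% = bacteria with antibiotic; twin plates without the antibiotic show which effects depend on it; some results filed as inactive read as strong as hits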
Arbovirus inh – antivirals against arbovirus infection, primary screen, cell-based, full library, 10K replicate subset. arbovirus infection cell-based antiviral screen. inhibition, % at 10 µM. hit rate 0.37% among 200,000. AID 1251, 2008;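 active means inhibition from about 30%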;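 further: bluetongue infection of BSR cells; cell survival read as ATP light after 72 h; 0% = infected wells without compound and 100% = uninfected wells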
YopH PTP inh – YopH tyrosine phosphatase inhibitors, primary screen, biochemical, fluorescence Ex485/Em525. inhibition, %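 (about 10 µM by stock and volumes)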. AID 898, 2007. hit rate 0.16% among 140,000. YopH tyrosine phosphatase [Yersinia enterocolitica];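 active means inhibition of 50% or more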;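 further: controls were vehicle for no effect and minimum signal wells for full effect; inactives centre near -20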
Arbovirus inh repeat – second read-out of Arbovirus inh, no call of its own (marks repeat the call); inhibition, %; measured here: 10K subset replicate screen; many hits read low in the repeat;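 first of two repeat runs on a subset; 0% = infected and 100% = uninfected wells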
An asterisk follows results filed as active; ? = inconclusive; / = not tested or not shown.

SMILES	Mtb H37Rv	RecA intein inh	Mtb bLac sens	Arbovirus inh	YopH PTP inh	others
COc1ccc(NC(=O)CNC(=O)c2nn(-c3ccc(OC)cc3OC)c(=O)c3ccccc23)c(OC)c1	/	4.3	2.1	/	/
COCC(C)N=C1NN=C(c2cccs2)C(CC(=O)O)S1 (centres undefined)	-7.4%	4.8	1.3	-3.9	/
COc1cccc(CN(C)C(=O)CSCC(=O)Nc2ccc(C)cc2)c1OC	/	-3.3	-1.6	/	/
COc1ccccc1C(=O)Nc1cccc(NC(C)=O)c1	1.6%	1.2	-5.9	4.3	-14.4
CC(NC(=O)C(=O)N1CCCCC1)C(c1cccs1)N1CCN(c2ccccc2)CC1 (centres undefined)	/	-0.1	-5.2	/	/
O=C(O)c1ccc(Cl)c(S(=O)(=O)N(Cc2ccccc2)c2ccc(F)cc2)c1	/	2.3	-6.1	/	/
Oc1c(C(Nc2ccccn2)c2cccnc2)cc(Cl)c2cccnc12 (centres undefined)	-2.1%	16.3	-1.8	-24.3	-41.3
COc1ccc(-n2c(-c3cc(-c4ccccc4)sc3N)n[nH]c2=S)cc1	-0.9%	-2.5	4.4	/	/
CCc1ccc(N2C(=O)CC(N3CCN(c4ccccn4)CC3)C2=O)cc1 (centres undefined)	-5.9%	-1.3	-5.3	/	/
COc1ccc(NC(=O)c2cccnc2N2CCCCC2)cc1	-0.3%	0.3	16.9	5.1	-18.1
Cn1nnnc1SCC(=O)N1CCCCC1	/	-1.4	-3.5	/	/
Cc1oc(-c2ccc(F)cc2F)nc1CN1C[C@@H]2C[C@@H](C1)c1cccc(=O)n1C2	-2.5%	-0.1	4.0	0.9	/
COc1ccc(C(C(=O)NC2CCCC2)N(Cc2cccnc2)C(=O)c2snc(C(N)=O)c2N)cc1 (centres undefined)	/	-3.0	6.1	/	/
CN(C)CC1CCCCC1OC(=O)c1ccc(Cl)c(Cl)c1 (centres undefined)	4.8%	0.8	4.2	-0.9	-3.8
CCCCCCC(C)OC(=O)c1ccccc1C(=O)O (centres undefined)	-11.3%	0.5	-10.2	/	/
CCc1ccccc1NC(=O)C1CCCN1C(=O)NCc1ccccc1 (centres undefined)	/	-0.9	-0.5	/	/
CC(=O)N1CCOc2ccc(S(=O)(=O)N3CCN(c4cccc(C(F)(F)F)c4)CC3)cc21	/	6.8	5.3	/	/
COC(=O)c1cc(C(=O)OC)n(Cc2ccc(F)cc2)c1C	7.7%	4.3	-1.2	-6.4	/
O=C(OCc1nc2ccccc2s1)c1cccs1	9.8%	3.9	5.0	1.9	6.8
Cc1ccccc1OCC(O)Cn1c(Br)nc2c1c(=O)[nH]c(=O)n2C (centres undefined)	-8.4%	-2.4	0.8	-23.5	/
COc1ccccc1NC(=O)Cn1cnc2c(nnn2-c2ccc(C)cc2)c1=O	4.8%	-1.9	-2.6	-2.4	/
Cc1c(CC=C(Cl)Cl)c(=O)[nH]c2c(C)cccc12	0.4%	-0.1	6.9	0.6	-15.7
CCCC(=O)N(Cc1cc(=O)[nH]c2ccccc12)c1ccccc1	/	-2.3	0.2	/	/
COc1ccc2nc(C)cc(N/N=C/c3ccc(F)cc3)c2c1	/	-1.0	92.3	/	/
O=C(CCNS(=O)(=O)c1ccc(Br)cc1)NCc1ccc(F)cc1	/	-3.3	1.9	/	/
CC(CC(=O)NC1CCCCC1)S(=O)(=O)c1ccc2c(c1)CCN2C(=O)C1CC1 (centres undefined)	/	3.9	-2.7	/	/
O=C(c1ccccc1)N1CCN(C(=O)c2ccc3c(c2)OCO3)CC1	/	-2.6	3.9	/	/
CCC1(c2ccccc2)NC(=O)N(CC(=O)N(C)CC(=O)Nc2c(C)cccc2C)C1=O (centres undefined)	/	1.5	5.5	/	/
CCCCN(Cc1ccccc1)S(=O)(=O)c1cc(Br)cc2c1N(C(C)=O)C(C)C2 (centres undefined)	5.3%	13.1	-7.4	-11.0	-29.6
COc1ccc2oc(C(=O)OCC(=O)Nc3cc(S(=O)(=O)N4CCOCC4)ccc3C)c(C)c2c1	/	-3.1	1.8	/	/
CCC1(C)NC(=O)N(/N=C/c2ccc(C)s2)C1=O (centres undefined)	/	-1.8	-2.1	/	/
COC(=O)Cn1c(SCc2ccccc2)nc2ccccc21	4.7%	3.9	38.6	-2.8	-19.2
CCSc1nc2c(c(=O)[nH]1)C(c1ccncc1)C(C(=O)OC)=C(C)N2 (centres undefined)	-14.1%	0.2	1.5	5.8	-41.3
Cc1ccc(C(=O)NCC(=O)OC(C)C(=O)NC2CCCCC2C)cc1C (centres undefined)	/	1.8	4.1	/	/
COc1ccc(OCC(=O)N(Cc2sccc2C)C2CCS(=O)(=O)C2)cc1 (centres undefined)	/	0.4	0.5	/	/
Cc1cc2oc(C(=O)NCc3ccc(S(N)(=O)=O)cc3)c(C)c2cc1C	7.5%	1.0	-0.6	-5.0	/
COc1cnc(SC)nc1Nc1ccc(C#N)cc1	6.2%	1.2	6.9	/	/
CCCN(CCC)C(=O)Cc1ccc(F)cc1	2.8%	-1.6	-4.4	1.2	/
NS(=O)(=O)c1cc2c(cc1C(F)(F)F)NCNS2(=O)=O	-2.8%	-1.4	2.7	2.2	-23.9
CN(Cc1nc2ccccc2s1)C(=O)c1ccc(F)cc1	/	1.3	-2.1	/	/
CC1CCN(S(=O)(=O)N2CCC(C(=O)NCCc3ccccc3)CC2)CC1	/	2.5	-7.4	/	/
Cc1ccc2c(c1)c1ncnc(N3CCc4ccccc4C3)c1n2C	6.39µM*	23.1	96.7	-4.1	-32.0
COC(=O)c1ccc(Cc2ccc(C(=O)OC)o2)o1	1.2%	-2.8	7.1	14.3	-23.5
CCn1c(=O)cc(OCC(=O)N(C)c2ccccc2F)c2ccccc21	-11.8%	-0.1	?	-5.3	-29.0
Cc1ccc([N+](=O)[O-])cc1S(=O)(=O)Nc1ccc(-c2ccc(N3CCCC3)nn2)cc1	/	2.1	-11.4	/	/
CCCCn1c(=O)c(C(=O)Nc2ccccn2)c(O)c2ccccc21	/	-4.0	97.1	/	/
Cc1ccc(C)c(S(=O)(=O)NCc2ccc3c(c2)OCO3)c1	/	2.9	2.8	/	/
O=C(CCCc1c[nH]c2ccccc12)Nc1ccc2ccccc2c1	?	-5.5	89.8	-9.8	-14.4
CN(CC(=O)Nc1cccc(F)c1)C(=O)c1ccc(N2CCCC2)c([N+](=O)[O-])c1	/	2.7	-1.1	/	/
O=C(O)COc1ccc(/C=N/NC(=O)c2cccc3ccccc23)cc1	/	0.3	6.0	/	/
O=C(CN1C(=O)C2C3C=CC(C3)C2C1=O)Nc1nc2ccccc2[nH]1 (centres undefined)	-14.9%	-6.4	-2.8	7.3	4.5
CCCn1c(N)c(C(=O)CSc2nnc(-c3cccnc3)n2-c2ccc(C)cc2C)c(=O)[nH]c1=O	6.0%	2.4	1.6	6.0	-14.3
COc1ccccc1-n1c(O)c(/C=C2\C=Nc3ccccc32)c(=O)[nH]c1=O	/	-2.7	8.4	/	/
CCCCCCCC1CC(=O)C=C(C)C1C(=O)OCC (centres undefined)	1.0%	3.2	-2.4	/	/
CCC1CN(C(=O)NCc2ccc(C)cc2)c2ccccc2O1 (centres undefined)	/	-1.7	12.2	/	/
COc1ccc(S(=O)(=O)N(CC(=O)NCc2ccco2)c2ccccc2OC)cc1	/	-0.6	-5.8	/	/
CCOC(=O)c1sc(N)c(C#N)c1CSc1nc2ccc(C)cc2[nH]1	4.9%	4.7	0.2	-0.9	-7.9
O=C(CCCC(=O)N(c1cccc(F)c1)C(C(=O)NC1CCCC1)c1ccc(O)cc1)Nc1ccccn1 (centres undefined)	/	-1.2	-9.9	/	/
CC1=Nn2c(nc(-c3ccccc3)c2-c2ccccc2)N(CC(N)=O)C(=O)C1	-1.7%	1.1	-1.3	-1.0	-34.1
O=C(CCC(=O)N(CC(=O)NC1CCCCC1)c1ccc(F)cc1)Nc1nccs1	/	0.5	1.1	/	/

Grouped by structure: the entries above with bromine.
SMILES	Mtb H37Rv	RecA intein inh	Mtb bLac sens	Arbovirus inh	YopH PTP inh	others
Cc1ccccc1OCC(O)Cn1c(Br)nc2c1c(=O)[nH]c(=O)n2C (centres undefined)	-8.4%	-2.4	0.8	-23.5	/
O=C(CCNS(=O)(=O)c1ccc(Br)cc1)NCc1ccc(F)cc1	/	-3.3	1.9	/	/
CCCCN(Cc1ccccc1)S(=O)(=O)c1cc(Br)cc2c1N(C(C)=O)C(C)C2 (centres undefined)	5.3%	13.1	-7.4	-11.0	-29.6

(more compounds)
SMILES	Mtb H37Rv	RecA intein inh	Mtb bLac sens	Arbovirus inh	YopH PTP inh	others
O=C(Nc1cccc(C(F)(F)F)c1)C1CCN(S(=O)(=O)c2cnc[nH]2)CC1	-10.3%	-3.5	-8.2	2.5	-17.4
CCCC(=O)NC(NC(=S)Nc1ccc(N=Nc2ccccc2)cc1)C(Cl)(Cl)Cl (centres undefined)	11.0%	-1.8	-2.2	-43.7	-23.8
CCOc1ccc(/C=C/C(=O)NCc2ccccc2)cc1	4.7%	4.2	-3.2	-7.3	-15.2
COc1cc(C2c3c(oc4ccccc4c3=O)C(=O)N2Cc2ccco2)ccc1O (centres undefined)	-4.8%	-1.1	4.1	19.1	-0.9
COc1ccccc1C(=O)Nc1ccnn1C1CCN(CCC(C)c2ccc(C)o2)CC1 (centres undefined)	/	2.8	-2.5	/	/
O=C(CN1CCc2ccccc2C1)Nc1ccc(Br)cc1	-6.8%	0.6	-3.9	14.0	-7.4
CCCCCCn1c(=O)c(C(=O)Nc2c(C)n(C)n(-c3ccccc3)c2=O)c(O)c2ccccc21	-5.0%	-1.3	-2.8	/	/
c1nnc2c3c4c(sc3ncn12)CCC4	-9.3%	1.0	-3.9	2.5	-26.4	Arbovirus inh repeat=0.2
CCOC(=O)c1[nH]cnc1C(=O)Nc1ccc(C)cc1	-5.9%	-1.3	73.4	/	/
COc1ccc(-c2nn(C)c(=O)c3ccccc23)cc1NC(=O)COc1ccccc1	-3.9%	-1.6	-3.3	-10.1	-33.5
COc1ccc(C)cc1NC(=O)C(OC(=O)c1ccc([N+](=O)[O-])o1)c1ccccc1 (centres undefined)	-4.5%	16.7	62.1	-10.9	-16.7
O=C(CCCN=C1NS(=O)(=O)c2ccccc21)OCC(=O)c1ccc(Br)cc1	/	5.7	-2.9	/	/
O=C(c1ccc2ncsc2c1)N1CCCC(C(F)(F)F)C1 (centres undefined)	/	0.0	-8.1	/	/
CCOc1cccc(N(C(=O)C2COc3ccccc3O2)C(C(=O)NC2CCCCC2)c2ccc(O)cc2)c1 (centres undefined)	2.8%	4.6	3.3	-5.7	-15.2
CN(C)C(=O)Nc1ccccc1	-6.1%	-1.5	6.6	/	/
CCOC(=O)N1CCN(S(=O)(=O)c2ccc3c(c2)OCC(=O)N3)CC1	-4.8%	-1.0	3.3	7.9	-20.1
COc1ccc(/C=N/NC(=O)c2ccc(NC(C)=O)cc2)cc1COc1ccc(F)cc1F	/	-0.4	-3.3	/	/
Cc1ccc(C(=O)O[C@H](C(=O)O)[C@H](OC(=O)c2ccc(C)cc2)C(=O)O)cc1	/	-3.7	-10.9	/	/
CCOC(=O)C1=C(N)N(c2ccccc2)C(=O)C1	-0.6%	-3.0	8.8	8.7	12.3
O=C(NNc1c2ccccc2nc2ccccc12)c1ccc(O)cc1	4.0%	-2.4	6.4	-6.0	-21.9
O=C(CSc1ccccc1C(=O)O)NCc1ccc(Cl)cc1	-0.7%	-7.0	-2.4	6.8	-36.3
NC1=NC(c2cccc(O)c2)n2c(nc3ccccc32)N1 (centres undefined)	-4.7%	1.6	-10.5	-6.3	-45.0
CCOc1ccc(C(=O)NCCc2ccc3c(c2)OCCO3)cc1	9.8%	0.2	0.1	18.9	/
COc1cc(/C=N/NC(=O)C(=O)NCc2cccnc2)ccc1O	-3.6%	1.5	-4.9	-5.8	-13.8
COCCCN(C(=O)CSCC(=O)Nc1cccc(C)c1)c1c(N)n(Cc2ccccc2)c(=O)[nH]c1=O	/	1.3	1.1	/	/
CCOc1ccc(N(CC(=O)NC(C)(C)C)C(=O)c2ccco2)cc1	-6.2%	0.8	6.4	5.7	-9.8
CC(=O)N1CCN(CC(=O)Nc2cc([N+](=O)[O-])ccc2Cl)CC1	-1.4%	-4.0	-8.6	3.8	/
O=C(Cc1ccc(F)cc1)OCC(=O)c1cc2ccccc2o1	-5.1%	0.9	-2.0	-3.4	-21.4
O=C(NNC(=O)c1ccccc1[N+](=O)[O-])c1ccco1	-1.2%	-0.4	-3.3	3.4	/
O=C(CN(C(=O)CNC(=O)c1cccs1)c1ccccc1F)NC1CCCCC1	/	0.9	6.3	/	/
CC1CC(C)CN(CC(O)COc2ccc3c(c2)CCC3)C1 (centres undefined)	12.8%	-3.3	6.0	0.9	9.1

Only part of the results is shown. The share of hits here may be higher or lower than overall.
